Screening results as filed in PubChem BioAssay.
Yeast UUG start – modulators of start codon recognition fidelity in yeast; S. cerevisiae UUG-firefly luciferase reporter, luminescence/redox ratio; activity score, % at 18.7 µM; hit rate 0.13% among 350,000;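 active means replicate mean at a twofold rise or more, about +100% in these data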;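 further: firefly luciferase made from a UUG start codon reports start codon fidelity; reporter light over untreated wells divided by growth signal over untreated wells; some hits fall short of that in this replicate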
PABP FP inh – blocks human PABP binding to poly(A) RNA | P11940 | fluorescence polarization | inhibition, % at 35 µM | hit rate 1% among 290,000 | AID 2014;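 active means 50% or more with normal probe brightness, or confirmed in later tests; inconclusive means above 50% with abnormal brightness, or retests that disagree; inactive means below 50% or failed in later tests; about a fifth of its hits are not listed in these tables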;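 further: calls also rest on retests at 20 µM and on dose response follow-up; controls were probe without protein and protein plus probe with vehicle; some compounds called inactive have numbers as strong as hits; many hits fall short of the cut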
Target sequence (P11940 whole entry, looked up): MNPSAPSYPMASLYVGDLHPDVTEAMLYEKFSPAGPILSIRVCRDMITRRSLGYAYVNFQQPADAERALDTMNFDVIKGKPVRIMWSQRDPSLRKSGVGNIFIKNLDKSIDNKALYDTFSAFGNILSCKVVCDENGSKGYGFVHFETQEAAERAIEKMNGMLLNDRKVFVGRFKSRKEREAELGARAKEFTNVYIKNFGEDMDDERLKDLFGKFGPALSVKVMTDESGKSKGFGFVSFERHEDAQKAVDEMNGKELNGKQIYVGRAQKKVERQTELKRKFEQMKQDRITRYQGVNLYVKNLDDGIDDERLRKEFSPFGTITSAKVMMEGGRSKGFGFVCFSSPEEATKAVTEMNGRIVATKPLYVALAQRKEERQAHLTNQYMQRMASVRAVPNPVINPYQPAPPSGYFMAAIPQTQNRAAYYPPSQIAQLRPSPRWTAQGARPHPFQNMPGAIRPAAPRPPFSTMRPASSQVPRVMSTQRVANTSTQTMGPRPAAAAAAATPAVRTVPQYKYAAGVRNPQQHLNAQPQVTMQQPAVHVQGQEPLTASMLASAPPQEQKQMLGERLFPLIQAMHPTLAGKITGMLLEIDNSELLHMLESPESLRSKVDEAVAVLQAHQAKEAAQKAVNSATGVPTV
Rce1 inhib – blocks yeast Ras-converting enzyme; Q03530; yeast membranes, quenched prenylated peptide cleavage fluorescence; calls only; hit rate 0.27% among 290,000; AID 2563;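 active means fall in fluorescence gain of 50% or more versus controls, with final raw signal at or below 3038400; inconclusive means same 50% fall but final raw signal above 3038400; inactive means fall in fluorescence gain under 50%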;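 further: plate controls were neutral control wells for no effect and wells lacking membranes for full effect; tested at 10 µM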
Target sequence (Q03530 whole entry, looked up): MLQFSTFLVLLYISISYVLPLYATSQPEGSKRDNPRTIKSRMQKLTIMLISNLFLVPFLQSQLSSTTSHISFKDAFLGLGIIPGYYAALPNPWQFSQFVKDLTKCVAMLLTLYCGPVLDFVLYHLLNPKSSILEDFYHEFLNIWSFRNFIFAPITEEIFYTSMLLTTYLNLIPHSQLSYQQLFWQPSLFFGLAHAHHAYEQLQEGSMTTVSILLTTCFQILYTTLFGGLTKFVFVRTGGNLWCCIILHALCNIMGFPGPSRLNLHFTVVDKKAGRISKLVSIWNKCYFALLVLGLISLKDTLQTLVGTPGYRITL
HIV Env fusion – blocks HIV Env-driven cell-cell fusion | HeLa-JRFL Env/CEM21 cell fusion, luciferase | inhibition, % at 12.3 µM | hit rate 1.1% among 360,000 | AID 651610;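 active means mean replicate inhibition score of at least 50 and every replicate individually at or above 50; inconclusive means only one of the two criteria met; inactive means mean below 50 and not all replicates reaching 50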;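 further: 0% = plate neutral controls and 100% = maraviroc near 300 nM; one replicate is shown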
MT1-MMP act inh – MT1-MMP (human) activation inhibition. P50281. HT1080 RFP-PRO-GFP cells, GFP/RFP ratio fluorescence, overnight; percent of plate control window, DMSO zero. GFP/RFP ratio change, % at 20 µM. hit rate 0.061% among 360,000. AID 651647;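 active means GFP/RFP ratio change of at least 30% with cell ATP level not reduced by more than half and red fluorescence within 50% of control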; further: strong numbers were not always called active
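Assay system – RFP-PRO-GFP reporter HT1080 cells · Compound dosing – single dose of 20 µM compound, 1% DMSO final · Incubation – overnight compound exposure at 37 °C · Measure – GFP/RFP fluorescence ratio · Benchmarks – DMSO wells and RFP-L50D-GFP cells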
eIF4H FP inh – inhibitors of RNA binding by human eIF4H; hit rate 0.94% among 290,000; inhibition, % at 35 µM; AID 2012; eIF4H fluorescence polarization binding assay;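 active means 50% or more with normal probe brightness, or confirmed in later tests; inconclusive means above 50% with abnormal brightness, or retests that disagree; inactive means below 50% or failed in later tests; about a fifth of its hits are not listed in these tables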;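 further: calls also rest on retests at 20 µM and on dose response follow-up; 0% = protein and probe with vehicle and 100% = probe without protein; strong numbers were not always called active; many hits fall short of the cut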
CSC inhib – blocks cancer stem cells; cancer stem cell-like cells viability, luminescence; inhibition, % at 7.5 µM; hit rate 1.1% among 300,000;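 active means mean at 75% or more and at least half the replicates too; inconclusive means mean and replicates disagree; tested in HMLE shEcad cells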;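 further: 0% = median of negative and 100% = median of positive control wells; the first replicate is given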
eIF4H FP inh retest – also measured in eIF4H FP inh; calls as there; inhibition, %; compound at 20 µM; confirmation average;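 mean of two retest wells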
PABP FP inh retest – further read-out of PABP FP inh, marked with its call; inhibition, %; compound at 20 µM; confirmation repeats;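 mean of two retest wells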
MT1-MMP act inh RFP – second read-out of MT1-MMP act inh, no call of its own (marks repeat the call); RFP signal change, %; measured here: RFP expression control read;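 0 = vehicle wells; hits needed this value within 50% of zero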
Starred values were filed as active, the others as inactive; i = inactive; ? = inconclusive; · = no result given. An excerpt; the hit share may differ from the screen's.

SMILES	Yeast UUG start	PABP FP inh	Rce1 inhib	HIV Env fusion	MT1-MMP act inh	MT1-MMP act inh RFP	eIF4H FP inh	CSC inhib	others
COC1CCN(Cc2c(C(=O)N3C[C@@H](C)O[C@@H](C)C3)nc3ccc(Cl)cn23)CC1	-14	8	i	-2	0	5	18	-4
COc1ccc(C(=O)NC(C)c2cnn(-c3ccccn3)c2C)o1 (centres undefined)	-14	-5	i	4	-3	0	-7	-5
CCCCCSc1nc2c(c(=O)[nH]c(=O)n2C)n1CCc1ccccc1	-23	4	i	·	3	-8	-1	-4
COc1ccc(NC(=O)CCNS(=O)(=O)c2ccccc2F)cc1S(=O)(=O)N1CCOCC1	-3	·	·	-4	0	5	·	·
O=C(NCc1ccccc1)C1CCCN(C(=O)Nc2ccccc2)C1 (centres undefined)	-11	-6	i	-11	10	4	2	27
COc1cccc(C(=O)/C=C/Nc2ccc(S(=O)(=O)Nc3onc(C)c3C)cc2)c1	·	-10	i	-21	4	7	-4	5
O=C(Nc1ccc(Br)cc1)c1ccc2ncsc2c1	-34	6	i	-74	1	0	6	7
CCOc1ccc(OCC)c(NC(=O)CC2Oc3ccccc3NC2=O)c1 (centres undefined)	-2	3	i	-7	-2	-1	6	-16
CCNC(=O)c1c(NC(=O)c2cc(-c3cc(C)cc(C)c3O)n[nH]2)sc2c1CCCC2	-9	·	·	-1	-3	4	·	·
Cc1cc(C)c(NC(=O)CSc2nc3ccc(NC(=O)CSc4nnnn4Cc4ccccc4)cc3s2)c(C)c1	-19	·	i	-1	6	0	·	-2
N/C(=N\OC(=O)COc1ccc2ccccc2c1)c1cccnc1	-10	-14	i	21	1	-2	-1	9
COc1ccc(Cn2cccc(NC(=O)Nc3cccc(OC)c3)c2=O)cc1	-34	-4	i	-3	-17	-26	-7	-4
COc1cccc(C2CC(c3cccs3)=NN2S(C)(=O)=O)c1OC (centres undefined)	·	4	i	12	-3	-10	-1	-3
COC(=O)/C=C/C(=O)Nc1cccnc1	-3	-11	i	·	3	-2	6	-7
CCC(=O)Nc1ccc(-c2nnc(-c3ccccc3)o2)cc1	-24	-9	i	·	2	-17	-5	-13
O=C(CN(c1ccccc1F)S(=O)(=O)c1ccccc1)Nc1ccccc1C(=O)N1CCOCC1	3	-1	i	2	1	0	-7	9
COc1ccc(OC)c(CN2CCC(C(=O)N(C)CCc3ccc(OC)c(OC)c3)CC2)c1	·	16	i	18	-3	3	10	-7
COC(=O)c1ccc(N2CCN(C)CC2)c(NC(=O)c2cc3ccccc3o2)c1	-8	-9	i	-23	-5	-7	-13	5
CN(C)c1ccc(C(=O)/C=C/c2ccccc2)cc1	-7	-2	i	-16	0	-3	5	6
CCOC(=O)c1c(C)n(C)c2cc(OCCN(CC)CC)ccc12	-7	-2	i	·	0	-3	-7	12

Next section, starting with the last two of the part before.
SMILES	Yeast UUG start	PABP FP inh	Rce1 inhib	HIV Env fusion	MT1-MMP act inh	MT1-MMP act inh RFP	eIF4H FP inh	CSC inhib	others
CN(C)c1ccc(C(=O)/C=C/c2ccccc2)cc1	-7	-2	i	-16	0	-3	5	6
CCOC(=O)c1c(C)n(C)c2cc(OCCN(CC)CC)ccc12	-7	-2	i	·	0	-3	-7	12
OC(COc1c(Br)cc(Br)cc1Br)CN1CCOCC1 (centres undefined)	-16	3	i	·	-2	-3	1	·
O=C(Cc1ccc(Cl)cc1Cl)Nc1ccncc1	-15	6	i	73*	1	-29	-1	9
COc1cc(OC)c(NS(=O)(=O)c2ccc(Cl)c(C(=O)OC(C)C(=O)N3CCCC3)c2)cc1Cl (centres undefined)	45	-3	i	20	12	-8	-6	-28
O=C(CN1C(=O)COc2ccccc21)NCCCN1CCOCC1	-26	0	i	11	-4	-1	-7	-5
CCCCCOC(=O)Cn1c(=O)c2c(nc(N3CCOCC3)n2C)n(C)c1=O	-6	-1	i	-11	-1	6	-10	-4
COc1ccc(NC(=O)Cn2c(=O)n(-c3ccccc3)c(=O)c3sccc32)c(OC)c1	·	2	i	-1	3	1	0	-8
COc1ccc(CC(=O)OCC(=O)N2CCCc3ccccc32)cc1	3	·	i	·	1	3	·	-6
O=c1c2oc3ccccc3c2ncn1Cc1cccc(Cl)c1	-4	2	i	5	-5	-5	-2	1
Cc1ccc(NC(=O)CSc2nnc3ccccn23)c(Cl)c1	-11	·	·	-32	4	6	·	·
CC1CCCCC1Nc1nc2ccc(Cl)cc2n2cnnc12 (centres undefined)	-11	21	i	7	4	-4	-10	18
O=C(O)C1CCCN(S(=O)(=O)c2ccc(Br)cc2)C1 (centres undefined)	-6	-4	i	-118	4	6	-13	-3
CCc1nnc(NC(=O)c2nn(-c3ccccc3)nc2C)s1	·	1	i	-4	2	-3	-3	-10
COc1ccc(S(=O)(=O)NCCCn2ccnc2)cc1Cl	2	-10	i	8	2	4	-2	-1
OC[C@H]1O[C@@H](O[C@@H]2[C@@H](CO)O[C@@](O)(CO)[C@H]2O)[C@H](O)[C@@H](O)[C@H]1O	-4	·	i	-7	5	6	·	-13
CC(C)=C(NC(=O)c1ccccc1Cl)C(=O)NCCc1nc2ccccc2[nH]1	-10	·	·	-3	-2	6	·	·
CC(C)c1ccc(CN(C)CC(O)c2ccccc2)cc1 (centres undefined)	·	-11	i	-12	-1	-1	1	10
COc1ccc(C(C)NC(=O)C2CCCO2)cc1OC (centres undefined)	0	1	i	·	-3	0	-9	-10
O=C(Nn1c(-c2ccc(F)cc2)nc2ccccc2c1=O)c1cccnc1	·	2	i	-7	1	6	4	-10
O=C(O)Cn1nc(-c2ccccc2)cc1-c1ccccc1	-6	4	i	-42	2	1	3	-11
O=C(Cc1ccc(Cl)cc1)c1c[nH]c(C(=O)NCCCN2CCOCC2)c1	·	5	i	-6	4	5	7	-18
Cc1ccc(Cl)cc1N1CCN(C(=O)c2ccc(CN3CCOCC3)cc2)CC1	-13	1	i	·	-4	-4	20	48
CCCNC(=O)c1ccccc1N1CCN(CCCCN2C(=O)C3CCCCN3C2=O)CC1 (centres undefined)	-17	1	i	23	0	2	4	-15
CCOC(=O)N1CCN(Cc2nc3cc(NC(=O)CC(C)C)ccc3n2CC)CC1	·	8	i	-33	0	-4	7	-12
COCC(=O)N(Cc1cc2cc(OC)ccc2[nH]c1=O)c1ccccc1	8	-2	i	·	2	0	5	·
COc1ccc(CC2(CO)CCN(Cc3cnn(C)c3C)CC2)cc1	·	-5	i	-5	-2	-3	-3	-5
Cc1c(C(=O)N2CCC(N3CCSCC3)CC2)oc2c(F)cccc12	-15	1	i	-6	-1	0	-2	45
O=C(NCCC1=CCCCC1)C1CCN(C(=O)Nc2ccccc2)CC1	8	-6	·	-3	1	1	-2	-15
CCOC(=O)C(=O)Nc1cc(C)on1	·	8	i	8	0	5	-6	5
CC1CCCC(C)N1C(=O)COC(=O)CNS(=O)(=O)c1ccc2ccccc2c1 (centres undefined)	-35	·	·	-5	4	1	·	·
COc1cccc(N2CCN(C3CCCC(C)C3)CC2)c1 (centres undefined)	-13	7	i	·	1	3	0	·
CSc1cccc(CNC(=O)C2CCC(=O)N(CC3CCCCC3)C2)c1 (centres undefined)	0	-6	·	7	1	-5	-11	-6
CCCCCCCc1nc2sc3c(c2c(=O)n1N)CC(C)(C)OC3	-14	0	i	-10	1	-7	5	8
Cc1ccc(CC2CC(=O)N(c3nc(C)cc(C)n3)C2=O)cc1 (centres undefined)	·	1	i	-5	-1	-2	4	-5
CC(C)Sc1nc2c([nH]c3ccccc32)c(=O)n1C	·	2	i	11	-3	0	8	-13
CC(C)(CC(=O)O)CC(=O)Nc1ccc(Cl)c(Cl)c1	·	-2	i	-15	4	0	-3	-13
O=C(COC(=O)/C=C/c1cccc(C(F)(F)F)c1)NCc1ccco1	-1	·	i	14	2	3	·	-12
COc1ccccc1NC(=O)N1CCCC1C(=O)NCc1ccccc1 (centres undefined)	-11	3	i	-282	2	0	-1	-1
Cc1ccc(NC(=O)CN2CCOCC2)cc1Cl	-16	2	i	7	-3	3	-2	·
O=C(OCc1cnc(Cl)s1)c1ccccc1Cl	-24	2	i	·	3	3	-8	-10
CCOC(=O)C[C@@H](C#N)NC(=O)[C@@H]1CCCN1C(=O)[C@@H](NC(=O)c1ccc(N)c(Cl)c1)C(C)(C)C	11	·	·	-17	1	1	·	·
CC1CCN(C(=O)c2cccc(S(=O)(=O)N3CCN(c4ccccc4)CC3)c2)CC1	·	·	i	20	5	0	·	-2
CN(C)C(=S)Oc1ccccc1C1SCCS1	0	·	·	8	0	4	·	·
CCc1ccc(NC(=O)COC(=O)c2cccs2)cc1	-10	-11	i	4	-2	0	5	-11
COc1ccccc1N(Cc1ccccc1)S(=O)(=O)c1cccc(C(=O)Nc2ccccn2)c1	0	9	i	28	-1	-2	-22	32
COc1cc(C(=O)NCc2ccncc2)cc(OC)c1OC	·	4	i	7	2	5	-3	12
CCS(=O)(=O)Nc1cc2c3c(c1)CCC(=O)N3CCC2	-15	·	i	3	-2	0	·	7
CCn1cc(/C=C(\NC(=O)c2ccc(OC)c(OC)c2)C(=O)NCCCO)c2ccccc21	·	-9	i	0	-1	-2	-4	-4
O=C(Nc1ccc(S(=O)(=O)NC2CCCC2)cc1)c1cnccn1	-9	9	i	15	8	-4	0	-11
O=C(O)c1cccc(N/N=C/c2ccc(OC(F)(F)F)cc2)c1	-37	-1	i	39	1	1	-2	1
COc1ccc(Cn2nnnc2C(c2cc3cccc(C)c3[nH]c2=O)N2CCOCC2)cc1 (centres undefined)	-17	7	i	86*	2	3	3	·
Cc1cccc(C(=O)Nc2cc(S(=O)(=O)N3CCOCC3)ccc2N2CCCCC2)c1	-6	·	·	9	-2	-9	·	·
COc1ccc(/C=C(\NC(=O)c2ccco2)C(=O)Nc2ccc(C(C)=O)cc2)cc1	-12	-14	i	14	-1	-1	0	3
CSCC[C@H](NC(=O)CC(C)(C)C)c1nc2ccccc2[nH]1	-11	-5	i	-11	-6	4	2	-7
Cc1ccc(S(=O)(=O)CCC#N)cc1	-10	13	i	-18	1	1	4	-4
COc1ccc(C)cc1S(=O)(=O)N(C)CC(=O)NCc1ccco1	-6	-4	i	·	0	2	6	·
CN(C(=O)CSc1cccc[n+]1[O-])C1CCCCC1	10	·	·	-6	9	3	·	-19
NC(=O)c1ccccc1N/C=C/C(=O)c1ccc(Cl)cc1	-4	-6	i	-348	8	0	7	22
COc1cc(C(c2nnnn2C2CCCC2)N2CCN(C(=O)c3ccco3)CC2)cc(OC)c1OC (centres undefined)	-2	14	i	4	0	0	-17	8
COc1ccc(C(=O)/C=C/c2ccc(-c3ccccc3)cc2)cc1CSCC(=O)O	-9	25	i	3	0	-8	82	5	eIF4H FP inh retest=47;PABP FP inh retest=14
Cc1cccn(Cc2c(Cl)cccc2Cl)c1=O	9	·	·	-3	3	5	·	1
CCN(CC)c1ccc2cc(C(N)=O)c(=N)oc2c1	·	?	i	-8	-108	7	?	1
N#CC1=C(N)Oc2n[nH]c(-c3cccs3)c2C1c1ccncc1 (centres undefined)	-15	10	i	-1	2	-3	-11	-12
